# Screening results deposited in PubChem by National Center for Advancing Translational Sciences (NCATS).
# Methyltransferases: Primary Screen for Target Class Profiling of Small Molecule Inhibitors of Methyltransferases; purified enzyme, MTase-Glo SAH luminescence; hits give low values; calls only at 40 µM; 25,000 tested, 3.9% active; AID 1745853, 2022; active = -50% or lower on at least one of six enzymes; inconclusive = the cases between; inactive = as a rule above -30% on all six;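 further: enzymes were COMT GAMT GNMT HNMT NNMT and PNMT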
#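 Each enzyme was reacted with SAM and its substrate, with compounds tested once at 40 uM; SAH formed was read by MTase-Glo luminescence.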
# Calls only; i = inactive; ? = inconclusive; + = active, no number. On the % scale 0 is the no-effect control and ±100 the full control effect. The list is partial. The share of hits here may be higher or lower than overall.
SMILES	Methyltransferases
CCC(CC)C(=O)NCc1cccnc1Oc1cccc(C(F)(F)F)c1	i
COc1ccccc1CNc1nc2c(S(=O)(=O)c3ccc(C)c(C)c3)nnn2c2ccccc12	i
Cc1ccc(-c2n[nH]n3c2nc(=O)c2ccc(C(=O)NC4CC4)cc23)cc1	i
CCn1cc(-c2cccc(C(F)(F)F)c2)c2sc(C(N)=NC3CCS(=O)(=O)CC3)cc2c1=O	?
CCCn1c(=O)c2ccc(C(=O)NC3CCCCC3)cc2n2c(=O)n(C)nc12	i
O=C(NCc1ccc2c(c1)OCO2)c1ccc2c(=O)nc3c(-c4cccc(F)c4)n[nH]n3c2c1	i
COC(=O)c1cc2n(n1)CC(C)(C(=O)NC1CCC(C)CC1)N(Cc1ccccc1C)C2=O (stereo unspecified)	i
CCOC(=O)c1cc2n(n1)CC(C)(C(=O)NC1CCCCC1)N(Cc1ccccc1)C2=O (stereo unspecified)	i
C=CCn1c(=O)c2ccc(C(=O)NCC(C)C)cc2n2c(=O)n(CC(N)=O)nc12	i
COC(=O)c1cc2n(n1)CC(C)(C(=O)NC1CCCCCC1)N(c1cccc(OC)c1)C2=O (stereo unspecified)	i
COC(=O)c1ncn2c1C(=O)N(c1ccc(C)cc1C)C(C)(C(=O)NC1CCCC1)C2 (stereo unspecified)	i
COc1cc(C(O)C(CO)Oc2ccc(CCCO[C@@H]3O[C@@H](C)[C@H](O)[C@@H](O)[C@H]3O)cc2OC)ccc1O (stereo partly specified)	+
Cc1cc2c(cc3n2CC(C)(C(=O)NC2CCCCCC2)N(CCc2ccccc2)C3=O)o1 (stereo unspecified)	i
COc1ccc(CNC(=O)C[C@@H]2O[C@H](CNC(=O)NC(C)C)[C@@H](O)[C@H]2O)cc1	i
C=CCNC(=O)c1cnn2cc(C)ccc12	i
CC(C)n1nc(CNC(=O)Cc2ccc(F)cc2)c2ccccc21	i
CC(C)CCn1c(=O)c2ccccc2n2c(=O)n(Cc3ccc(F)cc3)nc12	i
COc1cccc(CNC(=O)C2CN(c3ccc(F)cc3)C(=O)N2)c1 (stereo unspecified)	i
CN(Cc1nc(-c2ccccc2)no1)C(=O)c1cccc(C2CCNC2)c1 (stereo unspecified)	i
CC(=O)CC(=O)Nc1ccc(Cl)c(C(F)(F)F)c1	i
COCCN1Cc2nc(NCc3ccccc3)ccc2OCC1=O	i
CCCNC(=O)N[C@@H]1C=C(C(=O)N[C@H](CC(C)C)C(N)=O)C[C@@H](O)[C@@H]1O	i
COc1cccc(-c2ccc3c(n2)CNC(=O)CO3)c1	i
COc1cccc(CSc2nnc3n(Cc4ccc(C)cc4)c(=O)c4ccccc4n23)c1	i
CC(C[N+](C)(C)C)OC(N)=O (stereo unspecified)	i
CN1C(=O)c2cc3ccccc3n2CC1(C)C(=O)NCC(=O)NCc1ccccn1 (stereo unspecified)	i
CCOc1ccc(-c2cc3c(=O)n(CCNC(=O)c4cnccn4)ccn3n2)cc1	i
COc1ccc(CCNC(=O)c2cc3n(n2)CC(C)(C(=O)NCc2ccc(F)cc2)N(C)C3=O)c(OC)c1 (stereo unspecified)	i
NC(=O)NCC(=O)N1CC[C@@H]2[C@@H](CCC(=O)N2CCc2ccccn2)C1	i
COc1ccc(S(=O)(=O)N2C[C@@H]3C[C@H](C2)c2ccc(NC(=O)c4ccc(C#N)cc4)c(=O)n2C3)cc1	i

SMILES	Methyltransferases
CCCOc1ccc(S(=O)(=O)N2CCN(CCO)CC2)cc1-c1nc2c(CCC)cn(CC)c2c(=O)[nH]1	i
Cc1cccc(CNC(=O)C2(C)Cn3cnc(C(=O)NC4CCCC4)c3C(=O)N2C2CC2)c1 (stereo unspecified)	i
CC1(C(=O)NCc2ccccc2)Cn2cnc(C(=O)NCCc3cccs3)c2C(=O)N1C1CC1 (stereo unspecified)	i
O=C(c1nc2ncccn2n1)N1CCCn2cc(-c3ccccc3)nc21	i
CC1(C(=O)NC2CCCCCC2)Cn2c(c(-n3cccc3)c3cc(F)ccc32)C(=O)N1Cc1ccco1 (stereo unspecified)	i
CSc1cccc(N2C(=O)c3cc(C(C)(C)C)nn3CC2(C)C(=O)NCc2ccccc2)c1 (stereo unspecified)	i
CNCCN1C(=O)CC[C@H]2CN(C(=O)COc3cccnc3)CC[C@H]21	i
COc1cccc(N2C(=O)c3cc4ccccc4n3CC2(C)C(=O)NCc2ccccc2OC)c1 (stereo unspecified)	i
Cc1ccc(NC(=O)Cn2c(=O)c3cc(Cl)ccc3n3nncc23)cc1	i
COCC(=O)N1CCN(C(=O)CSCC(=O)O)C[C@H]1C(=O)N[C@H]1CCCNC1=O	i
CC1(C(=O)NC2CCCCC2)Cn2c(cc3occc32)C(=O)N1CCc1ccccc1 (stereo unspecified)	i
CCOc1ccc(CNC(=O)c2cc3n(n2)CC(C)(C(=O)NC2CCCCCC2)N(C)C3=O)cc1 (stereo unspecified)	i
N#Cc1ccc(O[C@@H]2COCC[C@H]2NC(=O)Cn2nnnc2N)cc1	i
CCc1ncc(-c2c(-c3ccccc3)ncn2CCCOc2cccnc2)cn1	i
CCOc1ccccc1CN1C(=O)c2cc3oc(C)cc3n2CC1(C)C(=O)NC1CCCCCC1 (stereo unspecified)	i
CC1CC(O)/C=C/C(O)/C=C\C(=O)O1 (stereo unspecified)	i
CCOC(=O)C1(Cc2ccccc2F)CCCN(C(=O)c2ccc3c(c2)OCCO3)C1 (stereo unspecified)	i
Cc1ccc(CN2C(=O)OC(c3cccc(NC(=O)c4ccc(F)cc4)c3)C2C(=O)NC2CC2)cc1 (stereo unspecified)	i
O=C(NC1CCCCC1)O[C@@H]1CO[C@H]2[C@@H]1OC[C@@H]2n1nnnc1-c1ccc2c(c1)OCCO2	i
Cc1nc2c(c(-c3ccc(Cl)cc3)n1)CCN(C(=O)N(C)C)CC2	i
Cc1ccc([C@@H]2CN(C(=O)c3c(-c4ccccc4)noc3C)C[C@H]2N(C)C)cc1	i
COC[C@@H]1CN(C(=O)c2ncccc2C)C[C@H]1C(N)=O	i
O=C1Nc2ccccc2C(O)(c2ccccc2)C1O (stereo unspecified)	i
COc1ccc(CCNc2nc3c(-c4ccccc4)nnn3c3ccccc23)cc1OC	i
CCn1c(=O)c(-c2ccc(-c3cncs3)cc2Cl)cc2cnc(Nc3ccc(N4CCN(C)CC4)cc3)nc21	i
C[C@@H]1O[C@@H](O[C@H]2[C@H](O)[C@@H](O)[C@H](OC[C@H]3O[C@@H](OC(=O)[C@]45CCC(C)(C)C[C@H]4C4=CCC6[C@@]7(C)CC[C@H](O[C@@H]8OC[C@H](O)[C@H](O[C@@H]9O[C@H](CO)[C@@H](O)[C@H](O)[C@H]9O)[C@H]8O)[C@@](C)(CO)C7CC[C@@]6(C)[C@]4(C)CC5)[C@H](O)[C@@H](O)[C@@H]3O)O[C@@H]2CO)[C@H](O)[C@H](O)[C@H]1O (stereo partly specified)	i
COc1ccc(N2CCN(C(CNS(=O)(=O)c3ccc(OC)cc3)c3ccco3)CC2)cc1 (stereo unspecified)	i
Cc1cc(C(=O)N2CCC(OCC3CC3)C2)n(C)n1 (stereo unspecified)	i
O=C(c1ccc2c(=O)nc3c(-c4ccc(F)cc4)n[nH]n3c2c1)N1CCN(c2ccccc2)CC1	i
CC1CCCN(c2ncnc3c2CN(c2ccc(Cl)cc2)C(=O)CN3C)C1 (stereo unspecified)	?

# Structures listed so far containing an NH in an aromatic ring, in the order listed:
SMILES	Methyltransferases
Cc1ccc(-c2n[nH]n3c2nc(=O)c2ccc(C(=O)NC4CC4)cc23)cc1	i
O=C(NCc1ccc2c(c1)OCO2)c1ccc2c(=O)nc3c(-c4cccc(F)c4)n[nH]n3c2c1	i
CCCOc1ccc(S(=O)(=O)N2CCN(CCO)CC2)cc1-c1nc2c(CCC)cn(CC)c2c(=O)[nH]1	i
O=C(c1ccc2c(=O)nc3c(-c4ccc(F)cc4)n[nH]n3c2c1)N1CCN(c2ccccc2)CC1	i

# (cont.)
SMILES	Methyltransferases
O=C(c1ccsc1)N1CCC2(CC1)CN(c1ccncn1)CC2CO (stereo unspecified)	i
O=C(COc1ccc2c(-c3ccccc3)cc(=O)oc2c1)c1ccc(Cl)cc1	i
CC(C)CNC(=O)c1ccc2c(=O)n(Cc3ccccc3)c3nn(CC(=O)NC(C)C)c(=O)n3c2c1	i
Cc1nnc(C(C)C)n1C1CC2CCC(C1)N2CC[C@H](NC(=O)C1CCC(F)(F)CC1)c1ccccc1 (stereo partly specified)	?
C=C[C@H]1[C@H](O[C@@H]2O[C@H](CO[C@@H]3OC[C@](O)(CO)[C@H]3O)[C@@H](O)[C@H](O)[C@H]2O)OC=C2C(=O)OCC[C@H]21	i
CCc1c(C)nn(CC(=O)N2CC(C)(C)[C@@](C)(O)C2)c1C	i
O=C(/C=C/c1nc2ccccc2[nH]1)c1c(-c2ccccc2)c2cc(Cl)ccc2[nH]c1=O	?
CCC(C)NC(=O)c1ccc2c(=O)n(C)c3nn(CC(=O)Nc4ccccc4)c(=O)n3c2c1 (stereo unspecified)	i
CCCn1c(=O)c2cc(F)ccc2n2c(SCC(=O)Nc3ccccc3C)nnc12	i
C=CC(C)(/C=C/c1ccc(O)cc1)CCC=C(C)C (stereo unspecified)	?
Cc1nn2c(c1-c1ccccc1[S+](C)(=O)[O-])N(CCCc1ccccc1)CCC2	i
CCN1C(=O)C2CC3(CCN(S(C)(=O)=O)CC3)CN2C1=O (stereo unspecified)	i
CC(CN1C(=O)c2nc3ccccc3n2CC1(C)C(=O)NC1CCCCC1)c1ccccc1 (stereo unspecified)	i
Cc1ccc2nc(C(=O)N3CCCC3c3cc(C(C)C)on3)cn2c1 (stereo unspecified)	i
CCOc1ccc(NC(=O)NCCc2noc(C)n2)cc1	i
CC1CCCCN1C(=O)C1COC2(CCN(C(=O)c3ccco3)CC2)N1C(=O)c1ccccc1 (stereo unspecified)	i
CC1(C(=O)NC2CCCCCCC2)Cn2c(cc3sccc32)C(=O)N1CC1CCCO1 (stereo unspecified)	i
CCN1CCN(C(=O)c2ccc(-c3nnc4ccc(NC(=O)C5CC5)cn34)cc2)CC1	i
COc1ccc(NC(=O)[C@@H]2C[C@H](c3ccc(F)cc3)N(Cc3csc(C)n3)C2)cn1	i
NC(=O)Cn1ccn2nc3c(c2c1=O)CCCC3	i
CC1(CO)CC[C@]2(C(=O)O[C@@H]3O[C@H](CO)[C@@H](O)[C@H](O)[C@H]3O)CC[C@]3(C)C(=CCC4[C@@]5(C)C[C@H](O)[C@H](O[C@@H]6OC[C@@H](O)[C@H](O)[C@H]6O)[C@@](C)(CO)C5CC[C@]43C)C2C1 (stereo partly specified)	+
C=CCNC(=O)N[C@H]1[C@H](O)[C@@H](NCCOC)[C@@H]2OC[C@H]1O2	i
CC1=C(C(=O)OC2CCCCC2)C(c2ccc([N+](=O)[O-])cc2)C2=C(CC(C)(C)CC2=O)N1 (stereo unspecified)	+
CCc1cc(N2CCN(C(=O)[C@H]3CCC[C@@H](O)C3)CC2)ncn1	i
Cc1ccc(Cn2nc3n(Cc4ccc(C)cc4)c(=O)c4ccccc4n3c2=O)cc1	i
O=C(NCCN1CCCC1)c1cc(-c2ccc(CN3CCOCC3)cc2)nc2ccc(F)cc12	i
C/C=C/C(=O)OC1/C=C/C(O)C(OC(C)=O)CCC(=O)OC1C (stereo unspecified)	i
O=C(Cn1c(=O)n2nc(-c3cccc(F)c3)nc2c2ccccc21)N1CCN(c2ccccc2F)CC1	i
CC(C)Cn1c(=O)c2ccccc2n2c(SCC(=O)Nc3ccc4c(c3)OCCO4)nnc12	i
O=C(c1cc(-c2cccnc2)c2nncn2n1)N1CCOCC1	i

# Entries above with an aryl thioether with sulfur outside any ring:
SMILES	Methyltransferases
COc1cccc(CSc2nnc3n(Cc4ccc(C)cc4)c(=O)c4ccccc4n23)c1	i
CSc1cccc(N2C(=O)c3cc(C(C)(C)C)nn3CC2(C)C(=O)NCc2ccccc2)c1 (stereo unspecified)	i
CCCn1c(=O)c2cc(F)ccc2n2c(SCC(=O)Nc3ccccc3C)nnc12	i
CC(C)Cn1c(=O)c2ccccc2n2c(SCC(=O)Nc3ccc4c(c3)OCCO4)nnc12	i

# More entries
SMILES	Methyltransferases
Cc1noc([C@@H](C)NCc2cccc(Cl)c2)c1C(=O)O	i
CCC(C)(OC(C)=O)C(=O)O[C@H]1[C@H](OC(C)=O)[C@]2(CO)[C@H](O)[C@H](O)[C@]3(C)C(=CCC4[C@@]5(C)CC[C@H](O[C@@H]6O[C@H](C(=O)O)[C@@H](O)[C@H](O[C@@H]7OC[C@H](O)[C@H](O[C@@H]8OC[C@H](O)[C@H](O)[C@H]8O)[C@H]7O)[C@H]6O[C@@H]6O[C@H](CO)[C@@H](O)[C@H](O)[C@H]6O)C(C)(C)C5CC[C@]43C)[C@@H]2CC1(C)C (stereo partly specified)	i
c1ccc(C(NCCNC(c2ccccc2)c2ccccc2)c2ccccc2)cc1	i
Cn1c(=O)n(C)c2cc(S(=O)(=O)NCC3CCCO3)ccc21 (stereo unspecified)	i
COc1ccc(-c2cc3n(n2)CC(C)(C(=O)NCc2ccccc2)N(c2cc(C)ccc2C)C3=O)cc1 (stereo unspecified)	i
CC(CCC1(O)OC2CC3C4CCC5CC(O[C@@H]6O[C@H](CO)[C@@H](O)[C@H](O)[C@H]6O[C@@H]6OC[C@@H](O)[C@H](O)[C@H]6O)C(O)CC5(C)C4CCC3(C)C2C1C)CO[C@@H]1O[C@H](CO)[C@@H](O)[C@H](O)[C@H]1O (stereo partly specified)	i
C/C=C1\[C@H](O[C@@H]2O[C@H](CO)[C@@H](O)[C@H](O)[C@H]2O)OC=C(C(=O)OC)[C@H]1CC(=O)OC	i
CCCn1c(=O)c2cc(F)ccc2n2c(SCc3ccccc3F)nnc12	i
